# PK Bst: alters activity of Bacillus stearothermophilus pyruvate kinase; partly purified Bacillus stearothermophilus pyruvate kinase, luminescence ATP production; ribose 5-phosphate activator present at AC10; Potency, µM; hit rate 1.2% among 51,000; in the data active means potency below about 11 µM; inconclusive means mostly about 12 µM to 25 µM; inactive means weaker than that;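 the screen sought inhibitors and activators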;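 note: potency is the fitted concentration of half-maximal effect; scaled between full activation by ribose 5 phosphate and full inhibition by luteolin; about four in five hits inhibit and the cells do not say which; series up to 57 µM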
# TsaE inh: YjeE (TsaE) inhibition, E. coli; P0AF67; purified YjeE, fluorescence polarisation of a bound ADP probe; Potency, µM; hit rate 0.05% among 71,000; AID 605; active = well fitted falling curve; inconclusive = weaker or top-dose-only fall, or a rising curve; inactive = flat or poorly fitted curve;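 note: top concentration of the series not given in the record; excess ADP was the control for the full effect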
#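 Fluorescence polarization of a BODIPY Texas Red–ADP probe (2 uM) bound to purified YjeE (10 uM) was read after 15 min room-temperature incubation with compounds. Loss of polarization marks inhibitors; ADP serves as titrated control.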
# Numbers without * were called inactive; i = inactive; ? = inconclusive; · = not tested or not shown. These rows are one share of the data. The share of hits here may be higher or lower than overall.
Structure | PK Bst | TsaE inh
COCCN(C(=O)c1ccccc1)c1nnc(-c2cccnc2)s1 | >57 | i
COc1ccc(Oc2ncc3nc(-c4cc(F)cc(F)c4)c(=O)n(C[C@H]4CCCO4)c3n2)cc1 | · | i
CCOC(=O)C1CCCN(Cc2ccc(O)c(OC)c2)C1 (stereo not drawn) | · | i
COc1ccc(S(=O)(=O)NCc2ccco2)c2ccccc12 | ? | i
O=C(Cn1cnc2c(nnn2Cc2ccc(F)cc2)c1=O)NC1CCCC1 | >57 | i
CC(c1ccccc1F)n1cc(C(=O)NCc2ccncc2)nn1 (stereo not drawn) | >57 | i
CC(C)CN(CC(C)C)S(=O)(=O)N1CCC(C(=O)NCc2ccccn2)CC1 | >57 | i
COc1cccc(NC(=O)CSc2nc(N)cc(N)n2)c1 | >57 | i
CC(C)(C)NC(=O)/C=N/O | >11 | ·
COc1c(NC(C)=O)c2ccccc2c2ccccc12 | · | i
Cn1c(=NC(=O)C2CCN(S(=O)(=O)c3cccs3)CC2)sc2ccccc21 | >57 | i
CC1(C)CC(=O)C(C=NCCN2CCNC2=O)=C(O)C1 | >57 | i
Cc1ccccc1NC(=O)CCC(=O)OCCCC(F)(F)C(F)(F)F | >57 | i
OC(c1ccc(Cl)cc1Cl)C(Cc1cccnc1)n1cncn1 (stereo not drawn) | >57 | i
Cc1nn(-c2ccccc2)c2c1C(c1cccnc1)N1C=C(S(=O)(=O)N3CCCCC3)C=CC1=N2 (stereo not drawn) | >57 | i

# In the list so far, these have four or more nitrogen atoms.
Structure | PK Bst | TsaE inh
COCCN(C(=O)c1ccccc1)c1nnc(-c2cccnc2)s1 | >57 | i
COc1ccc(Oc2ncc3nc(-c4cc(F)cc(F)c4)c(=O)n(C[C@H]4CCCO4)c3n2)cc1 | · | i
O=C(Cn1cnc2c(nnn2Cc2ccc(F)cc2)c1=O)NC1CCCC1 | >57 | i
CC(c1ccccc1F)n1cc(C(=O)NCc2ccncc2)nn1 (stereo not drawn) | >57 | i
CC(C)CN(CC(C)C)S(=O)(=O)N1CCC(C(=O)NCc2ccccn2)CC1 | >57 | i
COc1cccc(NC(=O)CSc2nc(N)cc(N)n2)c1 | >57 | i
OC(c1ccc(Cl)cc1Cl)C(Cc1cccnc1)n1cncn1 (stereo not drawn) | >57 | i
Cc1nn(-c2ccccc2)c2c1C(c1cccnc1)N1C=C(S(=O)(=O)N3CCCCC3)C=CC1=N2 (stereo not drawn) | >57 | i

# Further compounds
Structure | PK Bst | TsaE inh
O=c1c(-c2ccc(Cl)cc2)nc2cnc(N3CCOCC3)nc2n1C1CC1 | · | i
CC1(C)CC(=O)C2=C(C1)Oc1ncn(CCCn3ccnc3)c(=N)c1C2c1ccccc1 (stereo not drawn) | >57 | i
O=C(CSc1ncccn1)NCc1ccccc1 | · | i
COc1cc(C(=O)Nc2cc(C)ccn2)cc(OC)c1OC | >57 | i
CC1CCC(NC(=O)C2c3ccccc3C(=O)N2CCCN2CCOCC2)CC1 (stereo not drawn) | >57 | i
O=C(CN1C(=O)C2CC=CCC2C1=O)Nc1ccc(-c2nnc3n2CCCCC3)cc1 (stereo not drawn) | >57 | i
CCCc1nc2oc3c(NCC4CCCO4)ncnc3c2c2c1COC(C)(C)C2 (stereo not drawn) | >57 | i
NC(=O)c1oc2ccc(Cl)cc2c1N | · | i
FC(F)(F)c1ccccc1-c1nc(NC2CCNCC2)c2ccccc2n1 | · | i
O=C(Nc1nc(-c2ccco2)cs1)c1ccccc1 | i | i
CC(=O)Nc1ccccc1OCC(=O)c1cc(C)n(Cc2cccs2)c1C | >57 | i
Cc1ccc(-n2nc(C)c3c2OC(N)=C(C#N)C3c2ccc(F)cc2)cc1 (stereo not drawn) | >57 | i
CC1OC2C(OC1C)N(S(C)(=O)=O)CCN2S(C)(=O)=O (stereo not drawn) | · | i
O=C(CSc1ccccn1)Nc1ccc(Br)cn1 | >57 | i
Cc1cc(N)n2nc(-c3ccccc3)cc2n1 | · | i
N#C[C@H](Cc1ccc(O)cc1)c1ccc(O)cc1 | · | i
CC(NC(=O)COc1ccccc1)C(=O)NC1=NCCS1 (stereo not drawn) | · | i
CCOC(=O)c1sc2nc(N3CCOCC3)c3c(c2c1N)CCCC3 | >57 | i
COc1ccccc1N1CCN(S(=O)(=O)c2cn(C)c(=O)n(C)c2=O)CC1 | · | i
COC(=O)CSc1nc2cc(C)ccc2cc1C#N | i | i
COc1ccccc1Nc1nc(N)nc(CN2CCc3ccccc3C2)n1 | >57 | i
CC1Cc2ccccc2N1C(=O)CSc1nc(-c2ccco2)cc(C(F)(F)F)n1 (stereo not drawn) | >57 | i
CCOC(=O)c1sc(N(Cc2ccccc2)C(=O)CSc2nnc(C3CC3)n2N)nc1C | >57 | i
C=CCn1c(=O)/c(=C/c2ccc(O)cc2)s/c1=C(/C#N)c1nnc2n1CCCCC2 | >57 | i
O=C(CCCNS(=O)(=O)c1cccc2nsnc12)NCCc1ccccc1 | >57 | i
C1=C(c2ccccc2)CCN(c2ncnc3nc[nH]c23)C1 | · | i
CN1Cc2cc(C(=O)c3cc(Cl)cc(CSc4ncccn4)c3O)cnc2NC1=O | >57 | i
O=c1[nH]c(NC2CCCCC2)nnc1Cc1ccccc1 | >57 | i
COc1ccc(N2C(=O)CC(Nc3ccc(N4CCOCC4)cc3)C2=O)c(OC)c1 (stereo not drawn) | >57 | i
COc1cc2c(cc1OC)C(c1ccc(C)o1)CC(=O)N2 (stereo not drawn) | · | i
CC1(C)CC(=O)C2=C(C1)N(CCN1CCOCC1)C1=C(C(=O)CC(C)(C)C1)C2c1cccc(F)c1 | >57 | i
Cc1ccc2c(C)c(C(=O)Nc3nnc(C)s3)oc2c1 | >57 | i
O=C(CCCSc1nc2sc3c(c2c(=O)[nH]1)CCC3)NCCO | >57 | i
COc1ccccc1-n1c(CNC(=O)c2ccc(S(=O)(=O)N3CCOCC3)cc2)n[nH]c1=S | >57 | i
CC(C)N1C(=O)C2ON(c3ccccc3)C(c3cccs3)C2C1=O (stereo not drawn) | >57 | i
COc1ccc(NC(=O)N2CCCC3(CCN(C(=O)c4csnn4)CC3)C2)cc1 | · | i
COc1cc(NS(=O)(=O)c2ccc(NC(=O)CSC3=NCCS3)cc2)nc(OC)n1 | >57 | i
Cn1c(=O)c2c(nc(Br)n2CCSc2nc3ccccc3o2)n(C)c1=O | >26 | ·
CCCCCC(=O)Nc1cc(N(C)C)nc2ccccc12 | · | i
CC(C)OCCCNC(=O)CN1C(=O)CC(C)(C)S(=O)(=O)c2ccccc21 | · | i
CC1CC(c2ccccc2)n2nc(NC(=O)c3ccco3)nc2N1 (stereo not drawn) | >57 | i
O=C(COC(=O)C12CC3CC(CC(C3)C1)C2)N1CCN(S(=O)(=O)c2ccccc2)CC1 | >57 | i
COc1ccccc1NC(=O)N1CCCC1C(=O)NC1CCCCC1 (stereo not drawn) | >57 | i
CN(C(=O)COC(=O)CNS(=O)(=O)/C=C/c1ccccc1)C1CCS(=O)(=O)C1 (stereo not drawn) | >57 | i
CCC(=O)Nc1ccccc1C(=O)OCC(=O)Nc1ccc(S(N)(=O)=O)cc1 | >57 | i
N#C/C(=C1/CCCCCN1)c1nc2ccccc2s1 | >57 | i
Cn1c(SCC(=O)C(C)(C)C)nnc1-c1cccnc1 | >57 | i
c1ccc2c(c1)CCC[C@@H]2C1=NCCN1 | · | i
Cn1c(=O)[nH]c(=O)c2c1nc(N(CCO)Cc1ccccc1)n2CCCc1ccccc1 | · | i
CCCCN1CN(S(=O)(=O)c2cccs2)c2nc3ccccc3nc21 | >57 | i
CCCCCC1CC(=O)N(Cc2ccc(Cl)cc2)C(=O)N1 (stereo not drawn) | >57 | i
COc1ccc(-c2cc(C(=O)Nc3cnn(Cc4ccccc4C)c3)no2)cc1OC | >57 | i
COc1ccc(Oc2ncc3nc(-c4cccs4)c(=O)n(Cc4cccc(OC)c4)c3n2)cc1 | · | i
CCn1c(COc2ccccc2)nnc1SCC(=O)Nc1ccc2c(c1)OCCO2 | >57 | i
Ic1ccc2c(c1)N(c1ccccc1)c1cc(Nc3ccc4nc5ccc(I)cc5[n+](-c5ccccc5)c4c3)ccc1N2 | · | ?
CCC(C)NC(=O)CCC(=O)Nc1ccc2nc(N3CCOCC3)cc(C)c2c1 (stereo not drawn) | >57 | i
O=C(CSc1ncccn1)NCCc1ccccc1 | · | i
COc1cccc(-c2nnn(CC(=O)O)n2)c1 | >57 | i
Cc1cc(=O)n(-c2ccc3ccccc3n2)[nH]1 | >57 | i
CCCc1cc(N2CCCC(C(=O)Nc3ccc(OC)cc3OC)C2)n2ncnc2n1 (stereo not drawn) | >57 | i

# The list goes on.
Structure | PK Bst | TsaE inh
N#Cc1nc(-c2ccc(F)cc2)oc1NCCN1CCOCC1 | · | i
CCCCOc1ccccc1C(=O)NCC(=O)O | >57 | i
COc1ccc(OC)c(-c2nnc(SCC(=O)NC3CCCCC3)o2)c1 | · | i
O=C(O)c1ccc(S(=O)(=O)Cc2ccccc2)cc1 | >57 | i
Cc1nc(NCCO)c2nnn(Cc3ccccc3F)c2n1 | >57 | i
O=C(Nc1ccc(C(F)(F)F)cc1)C1CCCN1S(=O)(=O)c1cccc2cccnc12 (stereo not drawn) | ? | i
CSc1ccccc1C(=O)NCc1ccc2c(c1)OCO2 | >57 | i
COc1ccc(NC(=O)CSc2nc3c(c(=O)n2-c2ccc(F)cc2)SCC3)c(OC)c1 | >57 | i
Cc1cc(C(=O)CSc2nnc(-c3cccc(F)c3)n2N)c(C)n1Cc1ccc2c(c1)OCO2 | >57 | i
Cc1ccc2[nH]c(-c3ccccc3)cc(=O)c2c1 | · | i
Cc1nc2sc(C(c3ccco3)N3CCN(c4ccccc4)CC3)c(O)n2n1 (stereo not drawn) | · | i
COc1ccc2c(c1)C(=NO)c1cc(OC)ccc1-2 | i | i
COc1ccc(-c2cc(-c3ccccc3)n3ncnc3n2)cc1 | i | ·
CC1CCN(C(=O)c2scc3c2OCCO3)CC1 | >57 | i
COc1cc(NS(=O)(=O)c2ccc(NC(C)=O)cc2)cc(OC)c1 | >57 | i
CCn1c(=O)n(CC(=O)NCc2ccccc2OC)c(=O)c2ccccc21 | >57 | i
CCc1ccc2nc(NC(=O)CSCc3c(C)noc3C)sc2c1 | · | i
COc1ccc(NC(=O)C(C)NS(=O)(=O)c2ccc(NC(C)=O)cc2)cc1Cl (stereo not drawn) | >57 | i
O=C1/C(=N/n2cnnc2)c2ccccc2N1Cc1ccccc1 | >57 | ?
CCC1=NC(c2ccccc2OC)N(O)C1(C)C (stereo not drawn) | · | i
CCN1CCCC1Cn1c(-c2ccccc2)nc2c(N(CCOC)CCOC)nc(C)nc21 (stereo not drawn) | · | i
COCc1cc(C)nc2sc(C(=O)N3CCCC3)c(N)c12 | >57 | i
O=C(c1ccco1)N1CCN(C(=O)c2cc3c(=O)oc4ccccc4c3s2)CC1 | >57 | i
Cn1c(=O)n(C)c2cc(S(=O)(=O)N3CCCc4ccccc43)ccc21 | · | i
COC(=O)C1=C(C)n2nnnc2NC1c1cc2ccccc2o1 (stereo not drawn) | >57 | i
Cc1cc(C)nc(-n2c(Nc3ccccc3)cc(=O)c3c(C)n(-c4ccccc4)c(=O)nc32)n1 | · | i
CC1CCCC(C)N1C(=O)c1cc(-c2ccc(Cl)c(Cl)c2)on1 (stereo not drawn) | 7.7* | i
O=C(NCc1cccs1)[C@@H]1CSC2c3ccccc3C(=O)N21 (stereo partly drawn) | >57 | i
CCN(CC)C(=O)Cn1ncc2c1-c1ccccc1OC2 | · | i
CCc1ccccc1NC(=O)c1onc(C)c1Cl | · | i
CCOCCCNC(=O)C(c1ccccc1)N(Cc1ccc2c(c1)OCO2)C(=O)CNC(C)=O (stereo not drawn) | >57 | i
CCN1CCN(Cc2c(C)[nH]c3ccc(C(=O)OC)cc3c2=O)CC1 | >57 | i
COc1ccc(C2/C(=C(/O)c3ccc(OC(C)C)cc3)C(=O)C(=O)N2CCCN2CCOCC2)cc1 (stereo not drawn) | >26 | ·
COc1ccc(Cl)cc1NC(=O)C1CCCN(S(=O)(=O)c2cccc3nonc23)C1 (stereo not drawn) | >57 | i
CSc1nc(=O)n(-c2ccccc2)c(C)c1C(C)=O | · | i
CC(C(=O)NCc1ccc2c(c1)OCO2)N(c1ccccc1)S(C)(=O)=O (stereo not drawn) | >57 | i
NCCC[C@@H](CC(=O)N[C@@H]1CCCC[C@H]1C(=O)N[C@H](CC(=O)N[C@@H](CCC(=O)O)CC(=O)O)Cc1ccccc1)NC(=O)C[C@H](Cc1c[nH]c2ccccc12)NC(=O)[C@@H]1CCCC[C@H]1N | · | i
CC(C)(C)Cc1nc(-c2ccccn2)no1 | >57 | i
O=C(Nc1ccccc1C(=O)NCc1ccccc1)c1ccco1 | >57 | i
O=C(N1CCCCC1)C1(c2ccccc2)CCOCC1 | >57 | i
COc1ccc(N(CC(=O)Nc2cccc(C(=O)O)c2)S(=O)(=O)c2c(C)noc2C)cc1 | >57 | i
Cc1nnc(SCC(=O)Nc2ccc(S(=O)(=O)N3CCCC3)cc2)n1N | >57 | i
O=C(Cn1c(=O)[nH]c2ccsc2c1=O)N1CCN(c2ccc(F)cc2)CC1 | >57 | i
CC1CCCC(NC(=O)CSc2ncccc2C(=O)O)C1C (stereo not drawn) | >57 | i
O=C(Nc1cccc(-c2nc3cc(Cl)ccc3o2)c1)C1CCCO1 (stereo not drawn) | i | i
COC(=O)CN(c1cccc(C(C)=O)c1)S(C)(=O)=O | >57 | i

# Assay outcomes: PubChem, National Center for Advancing Translational Sciences (NCATS)
